RecA intein inh: Mtb RecA intein splicing inhibitors, primary screen, biochemical, fluorescence, HTS | Protein RecA (Mycobacterium tuberculosis (strain ATCC 25618 / H37Rv)), P9WHJ3 | cell-free RecA intein splicing | inhibition, %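 (about 9 µM by stock and volumes)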 | hit rate 0.75% among 290,000; in the data active means inhibition above about 30%; inconclusive means no clear call, values can overlap the other calls;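 further: 0% = vehicle wells and 100% = reference inhibitor control wells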
Target sequence (P9WHJ3 whole entry, looked up): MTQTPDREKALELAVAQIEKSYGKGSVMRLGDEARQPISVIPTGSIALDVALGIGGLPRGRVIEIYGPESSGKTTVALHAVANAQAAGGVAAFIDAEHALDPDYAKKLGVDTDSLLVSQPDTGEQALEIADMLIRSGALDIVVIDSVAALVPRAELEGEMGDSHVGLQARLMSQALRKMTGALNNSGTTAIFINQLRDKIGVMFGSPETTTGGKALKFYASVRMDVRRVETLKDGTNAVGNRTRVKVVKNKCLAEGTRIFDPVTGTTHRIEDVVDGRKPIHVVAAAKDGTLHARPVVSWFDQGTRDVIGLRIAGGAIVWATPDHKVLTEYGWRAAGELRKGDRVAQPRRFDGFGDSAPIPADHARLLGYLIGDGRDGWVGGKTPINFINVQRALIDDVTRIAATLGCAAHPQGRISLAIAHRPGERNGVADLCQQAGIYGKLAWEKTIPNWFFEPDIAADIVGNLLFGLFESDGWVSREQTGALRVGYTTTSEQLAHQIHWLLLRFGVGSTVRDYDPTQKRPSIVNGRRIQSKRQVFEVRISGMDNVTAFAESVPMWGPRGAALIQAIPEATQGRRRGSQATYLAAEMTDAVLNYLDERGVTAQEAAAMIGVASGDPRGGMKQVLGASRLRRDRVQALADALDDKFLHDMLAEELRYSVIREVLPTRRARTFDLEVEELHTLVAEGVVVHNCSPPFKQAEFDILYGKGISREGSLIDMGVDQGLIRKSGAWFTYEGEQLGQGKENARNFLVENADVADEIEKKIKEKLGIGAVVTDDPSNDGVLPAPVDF
Mtb betalactam: beta-lactam sensitization of Mtb H37Rv, H37Rv; M. tuberculosis H37Rv growth with meropenem, percent inhibition; hits of this screen are not shown here; inhibition, % at 25 µM; hit rate 0.27% among 330,000; AID 434955, 2010;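 active means about 74% or more and at least 40 points above the plate without the antibiotic, then above 30% in a dose series; inconclusive means first-round hits that could not be retested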;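 further: growth measured after seven days incubation then overnight dye step; 0% = bacteria only wells and 100% = bacteria with antibiotic; twin plates without the antibiotic show which effects depend on it; some results filed as inactive read as strong as hits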
Mtb H37Rv: M. tuberculosis H37Rv growth inhibitors, H37Rv strain (AID 1626). M. tuberculosis H37Rv growth inhibition; higher % means a stronger effect. inhibition, % at 10 µM, or IC50 in µM where a hit was titrated. hit rate 0.95% among 220,000;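 active means confirmed in a dose series; inconclusive means inhibition above 80% but not taken into the dose series; inactive means below 80% or under 30% at every dose of the series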;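 further: bacteria incubated seven days before Alamar blue readout; 0% = bacteria only wells and 100% = bacteria with antibiotic wells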
YopH inh: YopH tyrosine phosphatase inhibitors, primary screen, biochemical, fluorescence Ex485/Em525; hit rate 0.16% among 140,000; inhibition, %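 (about 10 µM by stock and volumes)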; AID 898, 2007;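 active means inhibition of 50% or more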;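 further: controls were vehicle for no effect and minimum signal wells for full effect; inactives centre near -20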
Arbovirus anti: antivirals against arbovirus infection, primary screen, cell-based, full library, 10K replicate subset; arbovirus infection cell-based antiviral screen; inhibition, % at 10 µM; hit rate 0.37% among 200,000;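 active means inhibition from about 30%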;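 further: bluetongue infection of BSR cells; cell survival read as ATP light after 72 h; 0% = infected wells without compound and 100% = uninfected wells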
Arbovirus anti repeat: also measured in Arbovirus anti; calls as there; inhibition, %; measured here: 10K subset replicate screen; many hits read low in the repeat;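 first of two repeat runs on a subset; 0% = infected and 100% = uninfected wells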
* marks the source's active call; other numbers are inactive results; ? = inconclusive; . = no result given. The list is partial. The share of hits here may be higher or lower than overall.

The opening 5 compounds as a preview:
SMILES | RecA intein inh | Mtb betalactam | Mtb H37Rv | YopH inh | Arbovirus anti | others
CCOC(=O)C1(CCOc2ccccc2)CCN(CC2CC2)CC1 | -1.7 | 1 | . | . | .
O=c1[nH]cc(NCCc2ccccc2)c(=O)[nH]1 | 52* | -4 | 2% | . | 9
COc1ccc(-n2cc(-c3ccccc3)c3c(NCCOCCO)ncnc32)cc1 | -1.1 | 8 | . | . | .
COc1cc2c(cc1OC)C(C)N(C(=O)c1sccc1C)CC2 (configuration not stated) | -0.3 | -4 | . | . | .
C=CCNCC#CCOc1ccc(OC)cc1 | -5.2 | -9 | 5% | -31 | 2

The whole of this part, previewed entries included:
SMILES | RecA intein inh | Mtb betalactam | Mtb H37Rv | YopH inh | Arbovirus anti | others
CCOC(=O)C1(CCOc2ccccc2)CCN(CC2CC2)CC1 | -1.7 | 1 | . | . | .
O=c1[nH]cc(NCCc2ccccc2)c(=O)[nH]1 | 52* | -4 | 2% | . | 9
COc1ccc(-n2cc(-c3ccccc3)c3c(NCCOCCO)ncnc32)cc1 | -1.1 | 8 | . | . | .
COc1cc2c(cc1OC)C(C)N(C(=O)c1sccc1C)CC2 (configuration not stated) | -0.3 | -4 | . | . | .
C=CCNCC#CCOc1ccc(OC)cc1 | -5.2 | -9 | 5% | -31 | 2
CC(=O)N1CCSc2ccc(S(=O)(=O)NCc3ccccc3)cc21 | 0.1 | -1 | . | . | .
COc1ccc(-c2nc3cc(NC(=S)NC(=O)Cc4ccccc4)ccc3o2)cc1 | 6.1 | 5 | -6% | -11 | -8
CC1SC(=NC(=O)c2ccco2)NC1=O (configuration not stated) | -0.5 | -11 | -7% | -50 | 19
Cc1cc(OC2CCCCC2)nc(NCc2ccccc2)n1 | 3.9 | -2 | 6% | . | .
CC(C)Cn1c(N)c(C(=O)COC(=O)CC23CC4CC(CC(C4)C2)C3)c(=O)n(C)c1=O | 7.7 | 1 | -8% | -15 | -26
Cc1ccc(NC(=O)CCn2cccc2)cc1 | -3.8 | -3 | 3% | -2 | 1
CCCn1nc2cc(C(=O)NCCc3ccc(C)cc3)ccc2c1OCC | 0.6 | -5 | -10% | -2 | -4
CCN(CC)C(=O)Cn1cc(C(=O)C(=O)N2CC=C(c3ccccc3)CC2)c2ccccc21 | -2.2 | -11 | . | . | 8
Cc1nc(N(C)Cc2ccccc2)c2nnn(Cc3ccccc3)c2n1 | . | -2 | 0% | -13 | -13
Cc1cc2nc(/N=C(\N)NC(=O)N3c4ccccc4Sc4ccccc43)nc(C)c2cc1C | . | -8 | ? | 8 | 2
COc1ccc2nc(C)cc(N3CCN(c4ccccc4)CC3)c2c1 | 2.5 | 8 | . | . | .
CC(=O)c1cccc(NC(=O)c2ccc(NC(=O)CCS(=O)(=O)c3cccs3)cc2)c1 | -0.5 | 3 | . | . | .
CC1CN(C(=S)NC(=O)c2ccc([N+](=O)[O-])cc2)CC(C)O1 (configuration not stated) | -0.3 | 95 | ? | -20 | 5
CSc1ccccc1C(=O)NCCSc1ccc(C)cc1 | 0.9 | -2 | . | . | .
COc1cc(/C(C)=N/N2CCN(Cc3ccc(C)cc3)CC2)ccc1O | -1.0 | -4 | . | . | .
Cc1cc(C(=O)COC(=O)c2ccc(Br)o2)c(C)n1C | -2.0 | 15 | 55% | . | -4
CSc1nsc(SCC(=O)Nc2c(C)n(C)n(-c3ccccc3)c2=O)n1 | -1.9 | -2 | -17% | -11 | 1
CC1CCCC(n2cnc3cc(C(=O)O)ccc32)C1C (configuration not stated) | 0.9 | -9 | 1% | . | 8
CCOc1ccc(NC(=O)C2CCN(S(=O)(=O)c3c(C)n[nH]c3C)CC2)cc1 | 1.2 | -2 | -8% | -33 | 1
Cc1ccc(CCSc2ccc(C(C)C)cc2)cn1 | 5.9 | 2 | 16% | -21 | 17

Continued, starting with the last four of the part before.
SMILES | RecA intein inh | Mtb betalactam | Mtb H37Rv | YopH inh | Arbovirus anti | others
CSc1nsc(SCC(=O)Nc2c(C)n(C)n(-c3ccccc3)c2=O)n1 | -1.9 | -2 | -17% | -11 | 1
CC1CCCC(n2cnc3cc(C(=O)O)ccc32)C1C (configuration not stated) | 0.9 | -9 | 1% | . | 8
CCOc1ccc(NC(=O)C2CCN(S(=O)(=O)c3c(C)n[nH]c3C)CC2)cc1 | 1.2 | -2 | -8% | -33 | 1
Cc1ccc(CCSc2ccc(C(C)C)cc2)cn1 | 5.9 | 2 | 16% | -21 | 17
CCOC(=O)C1(Cc2ccc(Cl)cc2)CCN(C(=O)c2cnc(C)cn2)CC1 | 0.2 | -1 | 7% | . | .
Cc1cc2cc3c(cc2nc1SCc1ccccn1)OCCO3 | 0.7 | -1 | 9% | 2 | -5
Cc1cccc(N2CCN(C3=NC(=O)C(Cc4ccccc4)S3)CC2)c1 (configuration not stated) | 2.3 | 8 | 6% | -20 | 11
CC(C)CC(C(=O)Oc1ccc2c3c(c(=O)oc2c1)CCC3)N1C(=O)c2ccccc2C1=O (configuration not stated) | 0.4 | . | . | -8 | 0
Cc1ccccc1CCNC(=O)C1CCN(S(=O)(=O)c2ccc(-n3cnnn3)cc2)CC1 | 2.1 | . | 0% | -38 | -3
Cc1ccc(Cl)cc1NC(=S)N(CCCN1CCOCC1)Cc1ccccn1 | -6.3 | 3 | 5% | 1 | 5
CCN(CC)c1ccc(/C=N/NC(=O)CNC(=O)c2ccc3c(c2)OCCO3)cc1 | -0.4 | 5 | . | . | .
Cc1ccc(NC(=O)CSc2nnc(CNC(=O)c3c(F)cccc3Cl)o2)cc1 | -0.4 | -8 | 0% | -106 | 8
CCOC(=O)N1CCC(NC(=O)C2CCN(S(=O)(=O)c3ccc4c(c3)oc(=O)n4C)CC2)CC1 | -2.7 | -6 | -4% | . | 3
O=C(COC(=O)[C@H](Cc1c[nH]c2ccccc12)NC(=O)c1cccs1)NCc1ccccc1 | 3.2 | 3 | -2% | -10 | -26
O=C(c1ccccc1)c1ccc(Oc2ncccn2)cc1 | -1.5 | -7 | -4% | -40 | -4
Cc1ccc(N2C(=O)CN(Cc3sccc3C)C2=S)cc1C | -0.1 | -2 | 11% | -11 | -9
CCOC(=O)C(Cc1c(F)cccc1F)(NC(C)=O)C(=O)OCC | -5.6 | 1 | 0% | -51 | 2
Cc1ccc(NC(=O)COC(=O)CCc2ccc(S(=O)(=O)N3CCOCC3)cc2)cc1F | -2.0 | -2 | 7% | . | 10
Cc1ccc(NC(=O)CSc2nn3c(=O)c(C)nnc3s2)cc1Cl | 6.0 | 0 | . | . | .
Cc1cc(C)c2cc(CN(Cc3cccs3)Cc3nnnn3CC3CCCO3)c(=O)[nH]c2c1 (configuration not stated) | 2.0 | 2 | 6% | -31 | -8
COc1nc(N/N=C/c2ccc(-c3cccc([N+](=O)[O-])c3)o2)nc(N2CCOCC2)n1 | 2.9 | . | -2% | -17 | -6
Cc1cc(=O)n(C2CCS(=O)(=O)C2)[nH]1 (configuration not stated) | 93* | -4 | -19% | . | -2
Cc1cc(C)nc(NS(=O)(=O)c2ccc(NC(=O)c3ccco3)cc2)n1 | 3.4 | -2 | 4% | -2 | 4 | Arbovirus anti repeat=1
COc1cc(CCC(=O)OCC(=O)Nc2ncc(Cl)cc2Cl)cc(OC)c1OC | 3.4 | -8 | 0% | -30 | -1
COc1cccc(C2C(C#N)=C(N)N(N(C)C)C3=C2C(=O)CC(C)(C)C3)c1 (configuration not stated) | -1.9 | -3 | . | . | .
CC12CCC(=O)C=C1CCC1C2C(O)CC2(C)C1CCC2(O)C(=O)CO (configuration not stated) | 0.7 | 4 | . | . | .
CC1CCCCN1CC(O)COCCC12CC3CC(CC(C3)C1)C2 (configuration not stated) | -0.4 | -4 | 9% | . | -8
COc1ccc(NC(=O)CN2CCN(C(=S)NC3CCCC3)CC2)cc1 | -0.4 | -1 | -4% | . | .
CC(=O)N1CC=CC1(CC(C)C)C(=O)NCc1cc(F)cc(C(F)(F)F)c1 (configuration not stated) | -0.4 | -10 | -6% | -20 | 0
(cont.)
SMILES | RecA intein inh | Mtb betalactam | Mtb H37Rv | YopH inh | Arbovirus anti | others
Cc1ccc(NC(=S)N2CCCC(c3nc4ccc(C)cc4[nH]3)C2)c(C)c1 (configuration not stated) | 0.8 | 0 | 5% | -47 | -1
O=C(CCN1CCN(Cc2ccccc2)CC1)NNC(=O)Nc1cccc(Cl)c1 | -1.3 | -7 | . | . | .
CCOC(=O)c1c(NC(=O)c2cccnc2)sc(C)c1C | -2.5 | 57 | 13% | -6 | -9
CCCCN(CCCC)CCNC(=O)Cc1nc2c(c(=O)[nH]c(=O)n2C)n1C | 0.9 | . | 1% | -14 | 3
CC1CN(C(=O)c2cccc(C(=O)N3CC(C)OC(C)C3)c2)CC(C)O1 (configuration not stated) | 0.6 | 2 | . | 12 | 13
CCOC(=O)C1CCN(S(=O)(=O)c2ccc(NC(C)=O)c(Cl)c2)CC1 | -0.3 | -4 | -5% | . | .
COc1ccccc1NC(CC(=O)c1ccccc1)C(=O)OCC(=O)c1ccc(C)c(C)c1 (configuration not stated) | 2.3 | 99 | ? | -12 | 2
Cc1cc(=O)n(-c2ccc(C(=O)O)cc2)[nH]1 | 94* | -5 | -9% | . | 9
N#C/C(=C(/O)c1ccc(Br)s1)c1nc2ccccc2[nH]1 | -6.4 | -6 | . | . | .
CC(C)N(CCCNC(=O)Cn1c(=O)c2cccn2c2ccccc21)Cc1ccccc1 | -1.5 | -4 | . | . | .
O=S(=O)(/N=C(/Nc1ccccn1)c1ccc(Cl)cc1)c1ccc(Cl)cc1 | 0.0 | 5 | -1% | -23 | -4
COc1ccc(NS(=O)(=O)c2cc3c(cc2C)N(C)CCO3)c(OC)c1 | 1.5 | -2 | . | . | .
CC(=O)Nc1ccc(NC(=O)CN(C)CC(=O)Nc2ccccc2Br)cc1 | -2.3 | -1 | 4% | . | -1
O=C(COC(=O)c1cccnc1)Nc1cccc2ccccc12 | 1.9 | -3 | . | . | .
COCCN(C(=O)CCC(=O)Nc1nccs1)C(C(=O)NC(C)(C)C)c1ccc(C)cc1 (configuration not stated) | 3.4 | -3 | . | . | .
Cc1ccc(CNC(=O)CN(c2ccc(C)cc2)S(=O)(=O)c2c(C)nn(C)c2C)cc1 | -4.4 | 3 | . | . | .
CCO[C@H]1OC(C(=O)N2CCCCCCC2)=C[C@@H](c2ccc(C(F)(F)F)cc2)[C@@H]1CCCO | -0.3 | -5 | . | . | -12
CCOc1ccc(C(=O)CCNC(Cc2cnc[nH]2)C(=O)O)cc1 (configuration not stated) | -2.7 | -1 | -6% | -20 | -3 | Arbovirus anti repeat=-2
O=Nc1c2ccc[nH]c-2c2ccc([N+](=O)[O-])cc12 | . | 0 | 61% | . | -1
COc1cc(/C=N/N2CCN(C3c4ccccc4-c4ccccc43)CC2)cc(OC)c1OC | -0.4 | 0 | -10% | -15 | 6
COc1cc(NC(=O)Cn2cnc(S(=O)(=O)N3CCOCC3)c2)cc(OC)c1OC | 8.2 | -5 | . | . | .
CCc1c(C)[nH]c2ccc(C)cc2c1=O | -2.0 | -12 | -11% | 10 | 1
COC(=O)c1c(NC(=S)NN2CCOCC2)sc2c1CCCC2 | 3.5 | -7 | -2% | . | 2
Cc1sc(NC(=O)C2=COCCO2)nc1-c1ccc(F)cc1 | 2.0 | -4 | . | . | .
CCn1c2ccccc2c2nnc(SCC(=O)Nc3cc(C)on3)nc21 | -1.8 | 0 | -8% | -42 | -8
Other structures follow:
SMILES | RecA intein inh | Mtb betalactam | Mtb H37Rv | YopH inh | Arbovirus anti | others
O=C(CNC(=O)c1ccc(Oc2ccccc2)cc1)OCc1ccc(Br)cc1 | 0.6 | 7 | -5% | -27 | -1
COc1cc(OC)cc(C(=O)N[C@H](C(=O)Nc2ccc(S(=O)(=O)N(C)C)cc2)C(C)C)c1 | -0.5 | -4 | 3% | . | -2
COc1cc(OC)cc(C(=O)NCCNC(=O)c2ccco2)c1 | 0.6 | -25 | -9% | 1 | 7
O=C(CCC1CCN(C(=O)Cc2c(F)cccc2F)CC1)NC1CC1 | -0.4 | 4 | . | . | .
CC(C(=O)O)c1ccc(N2Cc3ccccc3C2=O)cc1 (configuration not stated) | -0.9 | 8 | 13% | -37 | -10
CC1=CC(c2ccccc2)n2nc(N)nc2N1 (configuration not stated) | -26 | -7 | -10% | . | .
COc1ccc(-n2nnnc2SCC(=O)c2ccc3c(c2)OCCO3)cc1 | -0.4 | -4 | -4% | -10 | 1
Cc1cc(C(=O)N2CCN(c3ncccc3C#N)CC2)no1 | 0.6 | 1 | 9% | . | .
COc1ccc(/C=C/C2=CC(C)(C)NC(=S)N2)cc1 | 0.4 | 3 | 4% | . | 13

Compound activity as filed in PubChem.
